NS1 inh = blocks influenza NS1 protein function; AID 2326; S. cerevisiae slowed by influenza A NS1, growth recovery by OD600; Potency, µM (series often up to 46.1 µM), for inactives: at the top dose activity, positive = more growth; 0.4% of 270,000 active; also: actives are rising curves; nearly all actives have a fitted effect of over 50% in size
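S. cerevisiae expressing influenza A NS1, grown in glucose, washed, then diluted 1:100 into pH 6.0 -URA galactose medium with 23 nl compound. Growth recovery read as OD600; NS1-free strain serves as control.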
Marburg entry inh = inhibitors of Marburg virus binding or cell entry | Potency, µM (series often up to 37.8 µM), inactives show at the top dose activity change, negative = inhibition, most hits filed as inhibitors | Marburg virus pseudotyped entry inhibition, cell reporter; control for the full effect not named in the record; about a third of the inactives were read at about 46 µM | 1.8% of 300,000 active; active = well fitted inhibition curve with a large enough effect; inconclusive = small, poorly fitted or top-dose-only effect, or effect the other way; inactive = flat fitted curve, though single readings scatter; tested in HEK293 cells; about a fifth of its hits are not listed in these tables; also: % is scaled to controls: 0 for no effect and ±100 for the full control effect; luciferase read-out
2A StopGo = FMDV 2A StopGo reporter, luciferase signal; human cells with a luciferase reporter of 2A StopGo recoding; control for the full effect not named in the record; Potency, µM (titrated, usually from 57.9 µM), inactives show at the highest dose signal change, negative = less light; 1.2% of 410,000 active; active = well fitted falling curve with a large enough effect; inconclusive = small, poorly fitted or top-dose-only effect; inactive = no such curve, though single readings can be large or run the other way; tested in HEK293T cells; also: % is scaled to controls: 0 for no effect and ±100 for the full control effect; nearly all actives have a fitted effect of over 45% in size; luciferase light after 4 h
Cruzain inh Det = blocks cruzain activity in presence of Triton detergent. 0.43% of 200,000 active. P25779. Potency, µM, for the others: max response, negative = inhibition, most hits filed as inhibitors. purified cruzain, Z-FR-AMC fluorescence, 0.01% Triton; active = well fitted curve in the direction sought with a large enough effect; inconclusive = small, poorly fitted or top-dose-only effect, or another doubt; inactive = no such curve, though single readings can be large; an effect the other way counts as inactive or inconclusive;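 also: plate controls were neutral wells for no effect and buffer without enzyme for full effect; nearly all actives have a fitted effect of over 40% in size; top concentration of the series not given in the record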
Target sequence (P25779 123-467 limits assumed): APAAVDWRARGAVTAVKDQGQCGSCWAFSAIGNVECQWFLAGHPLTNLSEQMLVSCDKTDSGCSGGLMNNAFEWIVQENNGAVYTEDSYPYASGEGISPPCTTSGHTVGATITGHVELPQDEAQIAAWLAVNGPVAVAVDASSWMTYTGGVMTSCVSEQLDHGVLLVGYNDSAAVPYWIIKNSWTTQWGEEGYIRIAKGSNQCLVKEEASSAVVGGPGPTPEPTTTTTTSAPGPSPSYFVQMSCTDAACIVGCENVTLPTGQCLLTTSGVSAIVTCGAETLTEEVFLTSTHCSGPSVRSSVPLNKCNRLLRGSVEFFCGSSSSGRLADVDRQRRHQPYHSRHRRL
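Purified cruzain (1.5 nM final) was preincubated with compounds for 15 min at room temperature in 100 mM sodium acetate pH 5.5, 5 mM DTT, 0.01% Triton X-100. Reaction started with 2 uM Z-FR-AMC; AMC fluorescence change over 60 s gave activity.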
RE007 growth inh = less growth of the S. pombe RE007 Vpr strain. S. pombe RE007 Vpr strain, BacTiter-Glo ATP luminescence, 24 h; control for the full effect not named in the record. Potency, µM (top dose mostly 92.2 µM), for the others: at the highest dose activity change, negative = less growth. 0.21% of 360,000 active. AID 651644; active = well fitted falling curve with a large enough effect; inconclusive = small, poorly fitted or top-dose-only effect; inactive = no such curve, though single readings can be large or run the other way;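 also: % is scaled to controls: 0 for no effect and ±100 for the full control effect; nearly all actives have a fitted effect of over 50% in size; the assay follows cell death caused by Vpr and the record does not say whether a fall means rescue or toxicity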
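Fission yeast strain RE007, carrying one chromosomally integrated HIV-1 vpr copy, was seeded at OD 0.01 in PMG+AL medium with 23 nL pinned compound. After 24 h at 30 °C and 99% humidity, viability was read by BacTiter-Glo luminescence.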
Cruzain noTriton = inhibitors of Trypanosoma cruzi cruzain without detergent; P25779; purified cruzain, Z-FR-AMC fluorescence, no detergent; Potency, µM, for inactives: max response, negative = inhibition, usual class: inhibitors; 2.3% of 200,000 active; AID 1476; active = well fitted curve in the direction sought with a large enough effect; inconclusive = small, poorly fitted or top-dose-only effect, or another doubt; inactive = no such curve, though single readings can be large; an effect the other way counts as inactive or inconclusive;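 also: plate controls were enzyme without inhibitor for no effect and buffer without enzyme for full effect; nearly all actives have a fitted effect of over 40% in size; top concentration of the series not given in the record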
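Purified cruzain at 1.5 nM, pre-incubated 15 min with compound at room temperature in 100 mM sodium acetate pH 5.5, 5 mM DTT, 0.00005% Triton X-100. Reaction started with 2 uM Z-FR-AMC; AMC fluorescence increase over 60 s gives rate.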
SARS PLP yeast = inhibitors of SARS-CoV papain-like protease in yeast; S. cerevisiae expressing SARS-CoV PLpro, growth rescue; control for the full effect not named in the record; Potency, µM (doses to about 32.9 µM), inactives show top-dose activity, positive = growth rescue; 0.19% of 330,000 active; AID 485353; also: 0% is about no effect; nearly all actives have a fitted effect of over 55% in size; growth read by luminescence after 48 h
Lassa entry inh = blocks Lassa virus binding to or entry into cells; Lassa virus pseudotype entry inhibition, cell reporter; control for the full effect not named in the record; 1.2% of 300,000 active; Potency, µM (titrated, usually from 37.9 µM), without a hit: top-dose activity change, negative = inhibition, most hits filed as inhibitors; active means well fitted inhibition curve with a large enough effect; inconclusive means small, poorly fitted or top-dose-only effect, or effect the other way; inactive means flat fitted curve, though single readings scatter; tested in HEK293 cells; also: % is scaled to controls: 0 for no effect and ±100 for the full control effect; nearly all actives have a fitted effect of over 50% in size; luciferase read-out
An asterisk follows results filed as active; ? = inconclusive; . = no result given; & = joins results of further samples; [ ] = dose if it differs, or a comment. Unless noted, calls follow the shape of the dose curve; as a rule, active means well fitted rising curve with a large enough effect; inconclusive means small, poorly fitted or top-dose-only effect; inactive means no such curve, though single readings can be large or run the other way. Potency is read from the fitted curve at half-maximal effect.

SMILES	NS1 inh	Marburg entry inh	2A StopGo	Cruzain inh Det	RE007 growth inh	Cruzain noTriton	SARS PLP yeast	Lassa entry inh
COC(=O)COc1ccc(NS(=O)(=O)c2cccc([N+](=O)[O-])c2)cc1	5%	-15%[46.1 µM]	-1%	.	-14%	.	1%	-13%
Cc1cccc2sc(N(CCCN(C)C)C(=O)c3ccc4ncsc4c3)nc12	-12%	.	18%	.	-1%	.	0%	.
Cn1c(=O)oc2cc(S(=O)(=O)N3CCN(c4ccccc4)CC3)ccc21	-3%	-16%	1%	0.8%	16%	12%	1%	13%
Cc1ccc2[nH]c(=O)c3cc(C(=O)N4CCN(c5ccccc5F)CC4)sc3c2c1	.	7%[46.1 µM]	1%	-0.3%	.	-2%	.	15%[46.1 µM]
Cc1cccc(SCC(=O)Nc2ccccc2[N+](=O)[O-])c1	-5%	3%[46.1 µM]	?	.	-14%	.	-1%	14%[46.1 µM]
O=C(NCc1ccco1)c1ccc(Cn2cc([N+](=O)[O-])cn2)o1	2%	6%	8%	2.9%	7%	0%	0%	1%
CC1(C)Cc2cccc(OCC(=O)OCC(=O)Nc3ccc(C(N)=O)cc3)c2O1	.	-3%	-3%	.	-1%	.	.	18%
O=C(COC(=O)/C=C/c1cccc(C(F)(F)F)c1)Nc1cccc2ccccc12	14%	24%	-18%	2.8%	-16%	?	25%	-3%
COCCn1c(-c2ccc(OC)cc2)cnc1SCC(=O)Nc1cccc2ccccc12	11%	-10%	-19%	-2.7%	4%	-2%	-5%	?
Cn1c(SCC(=O)NCc2ccccc2)nnc1C1CC1	-2%	18%[46.1 µM]	11%	3.5%	10%	1%	-2%	?
CC1=C(C(=O)OCc2ccccc2)C(c2ccco2)n2ncnc2N1 (centres undefined)	9%	.	28µM*	-0.9%	9%	-3%	1%	.
Nc1c(C(=O)NCc2ccco2)c2nc3ccccc3nc2n1CCN1CCOCC1	8%	?	-21%	-8.8%	0%	?	3%	-5%

As a working copy, part of the list above:
SMILES	NS1 inh	Marburg entry inh	2A StopGo	Cruzain inh Det	RE007 growth inh	Cruzain noTriton	SARS PLP yeast	Lassa entry inh
O=C(NCc1ccco1)c1ccc(Cn2cc([N+](=O)[O-])cn2)o1	2%	6%	8%	2.9%	7%	0%	0%	1%
CC1(C)Cc2cccc(OCC(=O)OCC(=O)Nc3ccc(C(N)=O)cc3)c2O1	.	-3%	-3%	.	-1%	.	.	18%

(cont.)
SMILES	NS1 inh	Marburg entry inh	2A StopGo	Cruzain inh Det	RE007 growth inh	Cruzain noTriton	SARS PLP yeast	Lassa entry inh
CN(CC(=O)Nc1ccc(F)c(F)c1F)C(=O)CC1OC(=O)c2ccccc21 (centres undefined)	.	-17%	-7%	.	2%	.	-1%	5%
CCCCSc1nnc2c(n1)[nH]c1ccccc12	-8%	?	35%	-0.4%	-14%	25µM*	-2%	?
O=C(NC(=S)NCc1nc2ccccc2[nH]1)c1ccc(F)cc1	.	3%[46.1 µM]	-3%	.	-4%	.	-1%	6%
O=C(NCc1ccc(F)cc1)c1nnc(Cc2cccc(F)c2)o1	.	.	5%	-9.7%	.	-15%	.	-23%[46.1 µM]
Cc1cccc(-n2nc3c(c2NC(=O)c2ccc(Br)o2)CSC3)c1	3%	-15%	-26%	-1.9%	-4%	-29%	2%	-2%
O=C1NCCN1Cc1ccccc1	-4%	2%	19%	2.5%	0%	8%	-4%	-5%
CC1(CC(=O)N/N=C/c2ccc(-c3ccc(Cl)cc3)o2)OCCO1	-5%	?	10%	-12%	10%	4%	-3%	-10%
Cc1ccccc1-c1cnn(-c2cccc([N+](=O)[O-])c2)c1N	-7%	-18%[46.1 µM]	17%	.	0%	.	-1%	18%[46.1 µM]
COC(=O)CNC(=O)Cn1cnc2sc(C)c(S(=O)(=O)N3CCN(c4ccccc4OC)CC3)c2c1=O	-11%	3%[46.1 µM]	2%	.	-10%	.	6%	21%
O=C(CNC(=O)c1ccccc1)OCCCOC(=O)CNC(=O)c1ccccc1	12%	?	-2%	.	0%	.	-1%	-11%
N=c1c(S(=O)(=O)c2ccc(F)cc2)cc2c(=O)n3ccccc3nc2n1CC1CCCO1 (centres undefined)	-8%	.	-5%	.	1%	.	4%	.
COc1ccc2oc(=O)c(-c3nnc(N)s3)cc2c1	.	?	59%[activator]	.	-1%	.	-2%	1%
Cc1cc(C=C2C(=O)NC(=O)NC2=O)c(C)n1-c1ccc2c(c1)OCO2	19%	-1%	2%	-8.2%	18%	-10%	6%	-21%
C/C(=N\NC(=O)c1cccs1)c1ccc2ccccc2c1	-4%	?	3%	.	4%	.	2%	25%[46.1 µM]
CC(=O)Nc1ccc(NC(=O)CN2C(=O)CC(c3ccco3)Sc3ccccc32)cc1 (centres undefined)	.	5%[46.1 µM]	-7%	-5.7%	.	2%	.	.
O=C(CCc1ccc(S(=O)(=O)NCc2ccccc2)cc1)NCc1cccnc1	4%	-1%	-4%	1.5%	-28%	-1%	11%	-3%
O=C(COC(=O)Cc1ccc(F)cc1)NC1CCCCC1	.	-19%	-11%	.	17%	.	-7%	2%
CCCc1nnc(NC(=O)CN2CCOCC2)s1	3%	14%	18%	1.9%	20%	-5%	3%	0%
CC(C)c1ccc(NC(=O)c2sccc2-n2cccc2)cc1	.	-18%	21%	.	-10%	.	-15%	-11%
COc1cc(/C=N/NC(=O)CNS(=O)(=O)c2ccc(C)cc2)cc(OC)c1OC	.	-13%	-3%	.	-6%	.	.	?
CC(=O)Nc1cccc(NC(=O)c2c(-c3ccccc3)noc2C)c1	-5%	-18%	?	0.3%	7%	2%	-2%	-1%
CC(C)Cc1ccc(C(C)C(=O)Nc2ncccn2)cc1 (centres undefined)	1%	-17%[46.1 µM]	-13%	.	6%	.	-3%	-17%
COc1cc(Br)cc2cc(C(=O)N3CCOCC3)c(=O)oc12	20%	5%[46.1 µM]	-1%	.	9%	.	3%	-4%[46.1 µM]
Cc1ccc(/C=C/C(=O)Nn2cnnc2)cc1	-43%	?	?	2.3%	-27%	-1%	1%	-2%
CNC(=S)NNC(=O)c1ccccc1F	.	29%[46.1 µM]	2%	.	22%	.	-2%	14%
CN(C)S(=O)(=O)c1cccc(NC(=O)CCCSc2ccccc2)c1	7%	?	-23%	.	3%	.	-5%	?
CCCNc1c(N)n(-c2ccccc2)c(=O)[nH]c1=O	-3%	18%	0%	4.9%	2%	-7%	11%	10%
O=C(Oc1ccccc1)c1c(Cl)cccc1P(=O)(O)O	-58%	-1%	-11%	3.7%	5%	-2%	-2%	11%
O=C1SCCN1N=Cc1ccc([N+](=O)[O-])o1	.	?	-17%	.	?	.	.	?
CCOc1ccc(NC(=S)Nc2ccc(Br)cc2Cl)cc1	-2%	3%[46.1 µM]	5%	.	4%	.	0%	0%
COc1ccc2c(c1)CCC(C)N2C(=O)C(=O)c1c[nH]c2ccccc12 (centres undefined)	-7%	.	0%	.	-3%	.	-1%	.
CCOc1ccc(C(=O)O/N=C(\N)c2ccccn2)cc1	-33%	.	10µM*	.	?	.	-17%	.
COc1cccc(NC(=O)CNC(=O)c2ccccc2)c1	4%	2%	69%[activator]	-0.6%	3%	13%	0%	29%
CCOc1ccc(-n2c(N)c(-c3nc4ccccc4[nH]3)sc2=S)cc1	15%	-11%	-13%	2.3%	4%	-10%	-5%	0%
CCOc1ccccc1NC(=O)CC1Nc2cc(C)c(C)cc2NC1=O (centres undefined)	7%	?	-2%	0.4%	16%	?	0%	?
O=P(Nc1ccccc1)(Nc1ccccc1)c1ccccc1	.	?	55%[activator]	.	-6%	.	.	-4%
CCOc1cc(NC(=S)NCCCN2CCOCC2)c(OCC)cc1NC(=O)C1CCCCC1	1%	.	-18%	.	-4%	.	0%	.
COC(=O)C(C(=O)Nc1ccccc1C)C1CCCCCC1 (centres undefined)	3%	?	-22%	.	-19%	.	0%	6%
O=C(Cn1ncc2c3ccccc3n(Cc3ccccc3F)c2c1=O)N1CCN(c2ccccn2)CC1	4%	.	?	.	2%	.	5%	.
CCOCCOC(=O)COc1ccc2c(-c3ccccc3)cc(=O)oc2c1	-34%	4%	19%	-4.1%	?	3%	1%	26%
O=C(Nc1ccnn1C1CCN(Cc2ccccn2)CC1)c1cccc(F)c1	0%	.	-11%	.	0%	.	-1%	.
CCOC(=O)C1CCN(S(=O)(=O)c2ccc3c(c2)CCN3C(=O)C2CCC2)CC1	-9%	.	?	.	-6%	.	0%	.
Fc1ccccc1/C=N/n1c(-c2cccnc2)n[nH]c1=S	2%	5%	-8%	.	12%	.	2%	9%
Cc1ccc(CN(Cc2cccn2-c2nnc(N3CCCC3=O)s2)C(=O)Nc2ccccc2C(F)(F)F)cc1	.	?	-20%	-4.9%	.	?	.	.
COc1ccc(CCc2nnc(NS(C)(=O)=O)s2)cc1	9%	?	21%	.	19%	.	0%	31%[46.1 µM]
CC(C)CC(=O)OC1C(N2CCOCC2)c2c(ccc(/C=C/C(=O)N3CCOCC3)c2O)OC1(C)C (centres undefined)	-4%	?	-8%	-24%	-11%	?	0%	3%
CCOc1ccccc1N(CC(=O)Nc1ccc(S(=O)(=O)N2CCOCC2)cc1)S(=O)(=O)c1ccc(Cl)cc1	21%	?	46%[activator]	-4.3%	-6%	-17%	-1%	11%&-4%
COc1ccccc1CN1C[C@@H]2C[C@@H](c3cccc(C)c3)N3CCC[C@@]23C1=O	2%	?	-6%	.	-20%	.	9%	2%
CCOC(=O)c1cccc(NC(=O)c2ccc3c(c2)nnn3C2CCCC2)c1	.	.	-104%	1.1%	.	-10%	.	9%[46.1 µM]
CCC(Oc1ccccc1)C(=O)NC1CCCCCC1 (centres undefined)	-6%	.	-10%	.	0%	.	1%	.
CCOC(=O)c1c2ccc(OCC(=O)N/N=C/c3ccc(Cl)cc3)cc2n2ccccc12	11%	1%	.	-0.6%	.	-21%	-2%	.
Cc1nnc(NC(=O)CSc2nnc(-c3ccco3)n2C(C)C)s1	-1%	9%[46.1 µM]	0%	.	-18%	.	9%	.
COc1ccccc1-c1nnc(SCC(=O)N2CCCC2)o1	-3%	-5%[46.1 µM]	20%	.	9%	.	-18%	-16%

Screening data from PubChem.
